PINK1 modulator – changes PINK1 expression; PINK1 immunofluorescence, high-content cytometry, 24 h; Potency, µM (series often up to 76.6 µM), for the others: at the highest dose activation (PINK1 increase), actives largely listed as activators; 410,000 compounds, 0.2% hits; active = well fitted activation curve with a large enough effect; inconclusive = small, poorly fitted or top-dose-only effect; inactive = flat fitted curve, though single readings scatter; cell line not stated here;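 note: potency is the fitted concentration of half-maximal effect; % of control where 0% means no effect; nearly all actives have a fitted effect of over 65% in size; a mitochondrial uncoupler was the plate control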
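Stable cell line, 250 cells/well, 12 h attachment; compounds pinned at 5 concentrations, 24 h; CCCP control. Fixed with nuclear dye, primary antibodies 12 h at 10 degrees C, secondary plus cell stain; laser-scanning cytometer read.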
gsp antag – gsp mutant antagonism; gsp-mutant cells, cAMP HTRF, 30 min; control for the full effect not named in the record; 340,000 compounds, 0.4% hits; Potency, µM (series often up to 76.9 µM), for the others: top-dose activity change, negative = inhibition, actives largely listed as inhibitors; active = falling curve of any shape with a large fitted effect; inconclusive = falling curve, mostly with a smaller effect; inactive = flat or rising curve; cell line not stated here;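 note: intracellular cAMP measured with PDE inhibitor Ro 20-1724 present during compound exposure; potency is the fitted concentration of half-maximal effect; % is set by controls: 0 for no effect and ±100 for the full control effect; nearly all actives have a fitted effect of over 65% in size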
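HTRF cAMP measurement after 30 min RT detection following 30 min, 37C compound treatment alongside […] (added as 300 uM solution) in G418-selected cells seeded at 2000/well and grown 16–24 h.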
ClpP mod – qHTS Assay for Activators of ClpP; ATP-dependent Clp protease proteolytic subunit (Bacillus subtilis (strain 168)), P80244; purified B. subtilis ClpP, FRET peptide cleavage, 20 min; Potency, µM (doses to about 57.5 µM), for inactives: at the top dose activity change, negative = active; 340,000 compounds, 1.9% hits; AID 651965, 2013; active = well fitted falling curve with a large enough effect; inconclusive = small, poorly fitted or top-dose-only effect; inactive = no such curve, though single readings can be large or run the other way; note: potency is the fitted concentration of half-maximal effect; the source files actives as falling curves though it sought activators and does not explain the sign; nearly all actives have a fitted effect of over 65% in size; many hits overshoot -100%
Target sequence (P80244 whole entry, looked up): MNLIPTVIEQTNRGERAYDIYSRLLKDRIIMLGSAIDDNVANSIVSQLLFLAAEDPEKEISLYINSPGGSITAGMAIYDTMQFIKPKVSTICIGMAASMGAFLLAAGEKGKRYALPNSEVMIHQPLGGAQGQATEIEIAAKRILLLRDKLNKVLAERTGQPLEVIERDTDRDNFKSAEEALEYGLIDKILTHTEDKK
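ClpP 10 microg/mL final, pH 8 Tris/KCl buffer with BSA, glycerol, Tween-20; compound pinned in; FRET-FV substrate; RT 20 min; Ex320/Em430; ΔFRET vs ADEP 5.8 microM, DMSO, no enzyme.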
D2 ag – human D2 receptor agonism in beta-arrestin assay; P14416; DiscoveRx PathHunter D2 beta-arrestin, luminescence, 90 min; 100% = 57 uM dopamine signal; activation, % (no concentration beside the values); 360,000 compounds, 0.084% hits; in the data active = activation above about 40%; inconclusive = about 15% to 40%; inactive = below about 15%; note: compound concentration not given in the record; the text of the record calls up to 30% inactive
Target sequence (P14416 whole entry, looked up): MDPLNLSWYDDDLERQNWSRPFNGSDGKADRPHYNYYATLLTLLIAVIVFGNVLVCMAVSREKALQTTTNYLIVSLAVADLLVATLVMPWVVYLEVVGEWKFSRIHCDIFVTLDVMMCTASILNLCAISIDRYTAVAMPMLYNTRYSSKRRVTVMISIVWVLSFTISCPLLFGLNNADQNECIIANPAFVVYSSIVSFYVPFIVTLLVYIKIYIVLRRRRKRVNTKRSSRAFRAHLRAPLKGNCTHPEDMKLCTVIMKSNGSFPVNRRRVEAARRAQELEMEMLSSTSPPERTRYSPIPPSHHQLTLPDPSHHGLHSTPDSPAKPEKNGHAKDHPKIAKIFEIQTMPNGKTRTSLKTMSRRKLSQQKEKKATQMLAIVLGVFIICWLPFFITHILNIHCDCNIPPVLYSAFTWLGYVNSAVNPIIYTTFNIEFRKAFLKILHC
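Agonist mode: compounds alone added to overnight-plated D2 PathHunter cells for 90 min at 37 C, with 57 uM final dopamine (EC100) defining full response. Beta-arrestin recruitment detected by chemiluminescent reagent, read after 1 h at ambient temperature.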
Menin MLL FP FL – displaces fluorescein MLL peptide from human menin; Fluorescence polarization, fluorescein-MLL peptide displacement from menin; AID 1766; 290,000 tested, under 10 active; FP activity change, % at 61.4 µM; inconclusive = falling polarisation curve, or a change in total fluorescence; inactive = total fluorescence flat and polarisation flat or rising; no compound was filed as active; the % refers to the polarisation; negative = inhibition;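 note: % of control where 0% means no effect; inhibitors lower the polarisation; unlabelled MLL peptide was the positive control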
Sfp PPTase inh – blocks B. subtilis Sfp PPTase activity | Biochemical Sfp PPTase activity, qHTS | Potency, µM, without a hit: max response, negative = inhibition, usual class: inhibitors | AID 1490 | Q9F4F7 | 310,000 compounds, 3.5% hits; active = well fitted inhibition curve with a large enough effect; inconclusive = small, poorly fitted or top-dose-only effect, or another doubt; inactive = no such curve, though single readings can be large or run the other way;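 note: the enzyme is Sfp with the accession as filed and its product quenches rhodamine fluorescence; potency is the fitted concentration of half-maximal effect; 0% = enzyme reaction without inhibitor and -100% = no enzyme wells; top concentration of the series not given in the record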
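After 15 min at room temperature with compound, 15 nM Sfp received 5 uM rhodamine-CoA plus 12.5 uM BHQ-2-ybbR (50 mM Hepes pH 7.6, 10 mM MgCl2). Rate came from the fluorescence difference over 30 min, ex 525/em 598 nm.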
gsp ag – agonists of gsp mutant (McCune-Albright syndrome). AID 624287. Potency, µM (titrated, usually from 76.9 µM), for the others: at the highest dose activation (cAMP increase), usual class: activators. gsp mutant cells, cAMP HTRF, 30 min; control for the full effect not named in the record. 340,000 compounds, 0.13% hits; active = well fitted activation curve with a large enough effect; inconclusive = small, poorly fitted or top-dose-only effect, or another doubt; inactive = no such curve, though single readings can be large or run the other way; cell line not stated here;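 note: phosphodiesterase inhibitor Ro 20-1724 added with compounds to block cAMP breakdown; potency is the fitted concentration of half-maximal effect; nearly all actives have a fitted effect of over 60% in size; about a fifth of the inactives were tested at one dose only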
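Cells in DMEM/10% FBS with G418 were pretreated with compounds in DMSO plus […] (300 uM stock) for 30 min at 37C. cAMP was measured by HTRF (cAMP-d2 plus anti-cAMP antibody-K) after 30 min at room temperature.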
* hit, by the source's call; ? = inconclusive; / = not tested or not shown; & = joins results of further samples; [ ] = dose if it differs, or a comment.

SMILES	PINK1 modulator	gsp antag	ClpP mod	D2 ag	Menin MLL FP FL	Sfp PPTase inh	gsp ag
O=C(Nc1ccc(Br)cc1)Nn1cnnc1	1.3%	0.6%	0.5%	-5.2	/	18.4%	13.9%
Cc1ccc(OCC(=O)N(Cc2cccs2)C2CCS(=O)(=O)C2)cc1C (stereo unspecified)	-0.2%	-1.5%	0.4%	-5.5	2.7	15.1%	-42.7%
O=C(NCc1ccccc1)c1ccc2c(=O)n(CCCN3CCCC3=O)c(=S)[nH]c2c1	2.6%	-12.9%	-1.1%	-1.6	-0.3	1.1%	26.9%
CCCCC(=O)Nc1cccc(NC(=S)NC(=O)COc2ccccc2Cl)c1	5.0%	-3.2%	1.6%	1.2	2.1	-13.7%	-72.3%[inhibitor]
C/C(N)=C(/C#N)C(=O)CSc1nnnn1-c1ccccc1	-0.7%	-2.3%	-0.7%	-0.2	-1.6	12.1%	-29.0%
CCCc1[nH]nc2c1C(C1CC=CCC1)C(C#N)=C(N)O2 (stereo unspecified)	-1.7%	-1.7%	-0.6%	0.2	1.3	8.0%	-50.3%[inhibitor]
O=C(OCCN1CCCCC1)c1c[nH]c2ccccc12	2.2%	-7.0%	-0.2%	-5.8	3.7&0.7&0.1	10.3%&4.0%&21.8%	/
COCCSc1nnc(NC(=O)c2ccc3c(c2)OCO3)s1	0.4%	-4.9%	-2.4%	-5.7	-6.6	14.2%	-9.0%
Cc1ccc(-c2cc(C(F)(F)F)c(C#N)c(SCCC#N)n2)o1	/	-20.0%	4.47µM*	0.1	6.9	-9.9%	?
COc1ccc(C(=O)Nc2ccc(C(=O)Nc3cccc(C)c3)cc2)cc1	?	12.6%	-16.8%	-5.0	/	27.6%	6.1%
O=C(COc1ccccc1)N=C1SC2CS(=O)(=O)CC2N1Cc1ccccc1 (stereo unspecified)	9.7%	4.1%	1.6%	-3.1	/	1.0%	7.7%
Cc1onc(-c2ccccc2Cl)c1-c1nc(-c2ccccn2)no1	1.2%	6.1%	-22.8%	5.4	1.9	-20.9%	11.4%[15.4 µM]
CC(C)(C)OC(=O)N[C@@H](Cc1ccccc1)C(=O)N1CCC(C(=O)NCC(=O)O)CC1	-0.8%	16.0%	0.4%	-2.2	-0.6	16.0%	-17.0%[15.4 µM]
S=C(NCC1CCCO1)NC1CCCCC1 (stereo unspecified)	0.7%	1.5%	-0.5%	1.8	1.5	11.2µM*	-19.4%
COc1ccc(C=O)cc1COc1ccc([N+](=O)[O-])c(C)c1	7.5%	-5.4%	/	0.8	-1.4	-22.6%	1.9%
CC(=O)c1c(C)[nH]c(C(=O)OCC(=O)Nc2nnc(-c3ccccc3)o2)c1C	-0.9%	-14.0%	-1.7%	5.1	/	/	0.1%
CCc1ccc(C(=O)NNC(=S)Nc2ccc(S(N)(=O)=O)cc2)s1	0.8%	-0.9%	/	-4.7	3.0	21.1%	-6.6%[15.4 µM]
CCC(CC)C(=O)NCCc1ccc(OC)c(OC)c1	-3.0%	8.2%	0.0%	0.9	-0.1	0.7%	2.2%
CCOC(=O)C1(CCOc2ccccc2)CCN(Cc2ccc(C#CCCO)cc2)CC1	8.9%	11.4%	-0.2%	-6.3	0.1	10.5%	23.2%
CCOc1ccc(NC(=O)CSc2nc(C)cc(C)n2)cc1	7.3%[38.3 µM]	-5.3%	-1.5%	3.6	-1.0	12.0%	10.0%
COC(=O)CSc1nnc(CNS(=O)(=O)c2ccc(Cl)cc2)n1C	-1.4%	6.9%	-1.3%	-1.9	2.5	16.3%	5.8%
COC(=O)C1=CN(c2ccc(OC)cc2)C=C(C(=O)OC)C1c1ccc([N+](=O)[O-])cc1	0.3%	-4.4%	1.4%	-3.7	0.2	4.1%	22.0%
O=C(NCC1CCCO1)c1ccc2c(=O)n(Cc3cccc(Br)c3)c(=S)[nH]c2c1 (stereo unspecified)	-0.3%	-24.4%	-1.4%	-4.1	-0.5	32.1%[activator]	10.4%[15.4 µM]
Cc1cc(C)cc(N(CCC#N)C(=O)COC(=O)c2ccc(OCc3c(C)noc3C)cc2)c1	-0.2%	?	-1.7%	-2.7	/	/	-110.4%[inhibitor]
COC(=O)c1ccc(NC(=O)CCN2C(=O)CSC2=O)cc1	4.1%	-1.8%	/	-0.9	0.0	19.2%	?
COCCNC(=S)N/N=C(\C)CCc1ccc2c(c1)OCO2	-1.0%	4.0%	/	1.9	0.3	39.8µM*	-15.6%
S=c1[nH]nc(NC2CCCCC2)s1	1.6%	/	0.6%	-1.4	/	/	-29.7%
NC(=O)CCN1CCN(S(=O)(=O)/C=C/c2ccccc2)CC1	-0.3%	8.2%	/	-3.9	0.4	3.8%	-4.0%[15.4 µM]
COCCNC(=O)C(c1ccc(C)o1)N(Cc1ccco1)C(=O)c1snc(C(N)=O)c1N (stereo unspecified)	-1.0%	5.4%	?	-3.5	1.8	1.7%	-1.6%
CCOC(=O)C1CCN(C(=O)C2CCN(c3ncnc4c3nc3n4CCCCC3)CC2)CC1	1.3%	-11.7%	0.5%	6.0	/	13.7%	26.4%
Cc1noc(C)c1COC(=O)COc1ccc(-c2ccccc2)cc1	1.1%	-9.3%	/	-1.0	1.8	-1.0%	5.1%[15.4 µM]
CCCNS(=O)(=O)c1ccc(OCC(=O)NCC2CCCO2)cc1 (stereo unspecified)	1.0%	3.7%	/	1.8	-1.0	5.2%	-10.2%
CC[C@@]1(C(=O)OC)N[C@H](CN(C)C(C)=O)[C@@H]2C(=O)N(C)C(=O)[C@@H]21	2.8%	8.3%	1.5%	0.0	/	/	/
CC(c1ccccc1F)n1cc(C(=O)NCCCn2ccnc2)nn1 (stereo unspecified)	4.7%	6.4%	-0.7%	-2.1	-1.3	-10.1%	-21.0%
CC(=O)c1cccc(Nc2ccc(Br)cc2)c1	1.6%	/	1.1%	3.6	/	/	/
Cc1ccccc1NC1C=CS(=O)(=O)C1 (stereo unspecified)	-0.9%	0.2%	-0.2%	-1.6	6.8	3.5%	21.9%
COc1ccc(NS(=O)(=O)c2ccc(OCC(=O)N3CCCC3)cc2)cc1	-1.3%[38.3 µM]	1.7%	0.0%	-0.4	0.1	2.1%	-14.5%
Fc1ccc(-c2nnc3ccccn23)cc1	-1.6%	-7.4%	-17.3%	-4.6	-0.1	-8.0%	-65.1%[inhibitor]
CC(=O)NC12CC3CC(C1)CC(C(=O)N1CCN(S(=O)(=O)c4cccc(C(F)(F)F)c4)CC1)(C3)C2	10.2%	-23.2%	-3.1%	2.5	/	/	4.1%
OCC1(Cc2cccc(Cl)c2)CCCN(Cc2cn[nH]c2C2CCCCC2)C1 (stereo unspecified)	1.1%	6.3%	-1.2%	-3.4	4.1	-6.7%	17.0%
CC(NC(=O)NCc1cccnc1)(C(F)(F)F)C(F)(F)F	-1.0%	2.3%	-5.7%	-2.5	2.2	17.7%	0.6%
COc1ccc(OC)c(/C=C/C(=O)Nc2cccc(S(=O)(=O)N3CCCC3)c2)c1	-0.7%	-8.2%	3.8%	6.3	-0.2	7.0%	25.1%
CSc1nnc(Cn2c(=O)sc3ccccc32)n1C	0.8%	-1.0%	-1.8%	-2.5	0.1	15.9%	23.4%
N/C(=N/S(=O)(=O)c1ccccc1)c1cccc([N+](=O)[O-])c1	0.8%	/	/	1.5	-3.3	17.1%	-0.5%[15.4 µM]
O=C(CN1C(=O)c2ccccc2C1=O)NCC1COc2ccccc2O1 (stereo unspecified)	1.9%	18.3%	0.8%	-5.5	5.2	13.7%	17.0%
CCNc1nc(N)c(C(=O)C23CC4CC(CC(C4)C2)C3)s1	2.0%	-13.4%	1.0%	-1.5	4.6	?	-15.1%
Cc1ccc(S(=O)(=O)N2CCC(C(=O)N[C@H](C(=O)NCc3ccco3)C(C)C)CC2)cc1	0.6%	5.8%	1.0%	-2.2	-0.8	13.7%	-18.7%
CC(C)Cn1nnc2c(=O)oc3ccccc3c21	11.6%	2.7%	-0.7%	-1.5	1.1	7.3%	-4.9%
CCOC(=O)Cc1csc(NS(=O)(=O)c2ccc3ccccc3c2)n1	-0.6%	4.9%	0.7%	-1.4	17.7	-26.2%	-8.4%
CCNC(=O)C1(C)CCN(C(=O)c2cc(F)cc(F)c2)C1 (stereo unspecified)	1.4%	/	0.2%	-3.2	/	/	/
CCn1nnnc1SCC(=O)c1cc(Cl)ccc1OC	1.0%	4.5%	-2.1%	-2.7	5.3	-3.6%	18.6%
CCc1cc(=O)oc2cc(OCC(=O)NCCCN3CCCC3=O)c(Cl)cc12	-1.1%	1.1%	4.0%	2.9	/	11.8%	?
O=C(c1cc(C(F)(F)F)cc(C(F)(F)F)c1)N1CCC[C@@]2(CCN(c3ccccc3)C2)C1	2.0%	/	/	/	10.2	21.4%	/
CC1(c2ccccc2)NC(=O)N(CC(=O)N2CCN(S(=O)(=O)c3c(F)cccc3F)CC2)C1=O (stereo unspecified)	-0.8%	6.7%	/	-5.0	/	/	3.1%[15.4 µM]
CCOC(=O)c1c(C)[nH]c(C(=O)OC(C)C(=O)NC2(C#N)CCCCC2)c1C (stereo unspecified)	2.3%	/	0.4%	-0.9	/	/	-142.6%[inhibitor]
CCCCN(C(=O)Cc1coc2cc(C)c(C)cc12)c1c(N)n(Cc2ccccc2)c(=O)[nH]c1=O	1.4%	-1.2%	-0.8%	-4.3	/	/	6.3%[15.4 µM]
COc1ccc(-c2cc3nc(C)c(CCC(=O)NCc4ccco4)c(C)n3n2)c(OC)c1	8.3%[38.3 µM]	-21.7%	?	-2.3	0.6	6.9%	-5.4%
CC(C)Cn1nc(C(=O)Nc2nnc(C3CC3)s2)c2ccccc2c1=O	0.5%	-15.6%	-1.3%	-3.4	/	/	23.8%
O=C1CSC(c2ccccn2)N1c1ccccc1F (stereo unspecified)	0.5%	-6.4%	0.0%	-0.4	-0.2	13.2%	-3.0%[15.4 µM]
CCn1c(/C=C/N(C)c2ccccc2)[n+](CC)c2ccc(Cl)cc21	/	-0.6%	-0.1%	-0.8	5.2	-1.9%	-3.1%
Cc1cc(C)c(NC(=O)COc2ccc(-n3cnnn3)cc2)c(C)c1	-1.4%	7.6%	1.1%	0.9	/	18.3%	25.6%
O=C(Nc1ncc(Cc2cccc([N+](=O)[O-])c2)s1)c1ccco1	5.5%	1.6%	-14.3%	-4.1	0.5	-8.8%	-59.8%[inhibitor]
